Screening results: PubChem BioAssay, National Center for Advancing Translational Sciences (NCATS)
miR-21 FLuc – qHTS Assay for Modulators of miRNAs and/orActivators of miR-21 | HeLa miR-21 FLuc reporter, luciferase, 48 h | AID 2288, 2010 | 340,000 tested, under 10 active | Potency, µM (series often up to 38.3 µM), inactives show at the top dose reporter change, positive = more light; active = well fitted rising curve with a large enough effect; inconclusive = small, poorly fitted or top-dose-only effect; inactive = no such curve, though single readings can be large or run the other way;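 note: % of control where 0% means no effect; miR-21 action dims this reporter so a rising signal means less miR-21 action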
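HeLa cells stably expressing CMV-driven firefly luciferase with a downstream miR-21 binding sequence, endogenously expressing miR-21, were treated with titrations (up to about 40uM final) for 48 hours at 37 degree Celsius. Luciferase luminescence was read after lysis.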
The depositor's hits bear a star; ? = inconclusive.

Structure,miR-21 FLuc
COc1cccc(NS(=O)(=O)c2ccc3[nH]cc(C(=O)NC4CCCCC4)c(=O)c3c2)c1,?
Cc1cccc(N2C(=O)N(Cc3cccc(C#N)c3)c3ccccc3S2(=O)=O)c1,12%
CCOc1cc(CNc2ccc(O)cc2)cc(Cl)c1OCc1ccccc1,13%
Cc1cccc(Nc2c3c(nc4nncn24)CCC3)c1C,-7%
CC(=O)Nc1ccc(NC(=O)CCCn2nc(C)c3sc4ccccc4c3c2=O)cc1,-21%
Cc1ccc(NC(=O)CN2C(=O)CCc3cc(S(=O)(=O)N4CCCCC4)ccc32)cc1C,-6%
Cc1ccc(Nc2nnc(-c3ccc(C)c(S(=O)(=O)N4CCN(C)CC4)c3)c3ccccc23)c(C)c1,-3%
Cc1ccc(C(c2c(O)cc(C)n(Cc3ccco3)c2=O)N2CCC(C)CC2)cc1 (centres undefined),2%
Cc1cc(F)ccc1NS(=O)(=O)c1ccc(-n2cccn2)cc1,14%
Cc1cc(NC(=O)c2cc(Cl)ccc2Cl)ccc1-c1cc2ccccc2oc1=O,3%
CC(C)(C)OC(=O)N1CCC(c2c(C(=O)N3CCN(c4cccc(Cl)c4)CC3)cnn2-c2cccc(Cl)c2)CC1,-2%
CCOc1ccc(C2c3c(oc4ccc(C)cc4c3=O)C(=O)N2CCCN2CCOCC2)cc1 (centres undefined),-12%
Cc1cccc(C(=O)N2CCNC(=O)C2CC(=O)Nc2ccc(F)cc2)c1 (centres undefined),-10%
O=C(NCCc1ccc(Cl)cc1)c1ccc(Cn2c(=O)[nH]c3ccccc3c2=O)cc1,1%
COc1ccccc1NC(=O)CSc1nc(-c2cccc(Cl)c2)nc2c1Cc1c(CO)cnc(C)c1O2,2%
Cc1cc2oc(C(=O)Nc3sc4c(c3C(=O)NCC3CCCO3)CCC4)cc(=O)c2cc1C (centres undefined),-2%
CCN1C(=O)C(O)(c2c[nH]c3ccccc23)c2cc(Br)ccc21 (centres undefined),15%
COc1cc2c(=O)n(Cc3ccco3)c(=O)n(CC(=O)Nc3ccc(F)cc3)c2cc1OC,4%
COc1ccc(CCNC(=O)c2ccc3c(c2)CCN3S(C)(=O)=O)cc1,0%
COc1cccc(NC(=O)Nc2ccc3nc(N4CCN(C)CC4)cc(C)c3c2)c1,-28%
COc1cc(OC)c(NC(=O)c2ccc3c(Cl)c4c(nc3c2)CCCC4)cc1Cl,0%
CCCCN(C)CCCNC(=O)c1cc(-c2ccc(Br)s2)nc2ccccc12,-5%
CCc1ccccc1NC(=O)Cn1nc(C(F)(F)F)c2c1CCCC2,-7%
CCOC(=O)c1[nH]c(C)c(CCC(=O)NCc2cccc(Cl)c2)c1C,0%
COc1ccc(C2C(=O)N(C3CCCCC3)CC(=O)N2CCC2=CCCCC2)cc1 (centres undefined),0%
Cc1nc(SCc2cc(=O)c3cccc(F)c3[nH]2)n[nH]1,3%
O=C(CN1C(=O)CCc2cc(Br)ccc21)Nc1ccc(OC(F)(F)F)cc1,-4%
Cc1cc(-c2ccccc2)n2nc(-c3ccc(Cl)cc3)cc2n1,-2%
CCOc1ccccc1C(=O)NCC(c1ccc(N(C)C)cc1)N1CCCC1 (centres undefined),4%
Cc1cccc(Cn2c(C)c(C)c3cc(C(=O)NCc4ccc(C)o4)ccc32)c1,10%
COc1ccc(CCNC(=O)Cc2c(C)c3c(cc(C)c4c(C)coc43)oc2=O)cc1OC,11%
COc1cc(C2C(=O)N(C3CCCCCC3)CC(=O)N2CCC2=CCCCC2)ccc1OC(C)C (centres undefined),-2%
CCOC(=O)c1nc(Nc2ccc(Cl)cc2)c2c(C)noc2n1,0%
COc1ccc(CCNc2nc(-c3ccc(Cl)cc3)cc(C(F)(F)F)n2)cc1OC,5%
O=C(c1ccc(Cl)cc1)n1nc(-c2cccnc2)nc1NCc1ccc(F)cc1,-9%
CCS(=O)(=O)c1ncc(N(Cc2ccccc2)Cc2ccco2)c(C(=O)Nc2cccc(Cl)c2C)n1,6%
COC(=O)c1cc(Cl)ccc1NC(=O)Cn1c(C)cc(C)c(C#N)c1=O,1%
O=C1c2[nH]nc(-c3ccccc3O)c2C(c2ccc(Cl)cc2)N1Cc1ccco1 (centres undefined),24%
Cc1[nH]c2ccccc2c1SCCNC(=O)c1ccccc1F,0%
O=C(CSc1nc(=O)n(Cc2ccncc2)c2c1CCC2)Nc1ccccc1,3%
CCOc1ccc(Nc2nc3ccccc3c3nnc(CC)n23)cc1,-2%
COC(=O)c1ccccc1NC(=O)C1CCCN(c2nnc(C)c3c(C)n(-c4ccccc4)nc23)C1 (centres undefined),0%
CC(C)Oc1ccc(CNC(=O)Cn2ncn3nc(-c4cccs4)cc3c2=O)cc1,-32%
CCOc1ccc(N(C(=O)c2ccc(OC)cc2)S(=O)(=O)c2ccc3c(c2)n(C)c(=O)n3C)cc1,-3%
COc1ccc(C2c3[nH]c4ccccc4c3CCN2C(=O)CCC2CCCC2)cc1 (centres undefined),19%
O=C(CCSCc1ccccc1Cl)N1CCN(c2ccc(F)cc2)CC1,0%
COc1ccc(-c2cn3nc(N4CCCC(C(=O)Nc5ccccc5OC)C4)sc3n2)cc1 (centres undefined),21%
COC(=O)c1cc2oc(C)cc2n1Cc1ccc(C)cc1,-10%
CC(C)Oc1ccc(CNC(=O)c2ccc3nc(Cc4ccccc4)oc3c2)cc1,1%
O=C(Cn1ncc2c3ccccc3n(Cc3ccccc3F)c2c1=O)NC1CCCCCC1,1%
COc1ccc(S(=O)(=O)N2CCN(c3ccccc3)CC2)cc1-c1noc(C)n1,-1%
Cc1ccc(C2=Nc3ccccc3NC(c3ccncc3)=N2)cc1,7%
COc1ccc(CN2COc3ccc4c(-c5ccccc5)cc(=O)oc4c3C2)cc1OC,-15%
CCOc1ccc(NC(=O)C2CCCN(c3nnc(-n4c(C)ccc4C)s3)C2)cc1 (centres undefined),-4%
Cc1cccc(S(=O)(=O)c2cn(Cc3ccc(F)cc3)c3cc(N4CCCCC4)c(F)cc3c2=O)c1,-1%
CC(=O)N1CCCc2cc(S(=O)(=O)N3CCC(C(=O)NCCC(C)C)CC3)ccc21,2%
CCC(=O)N1c2ccccc2CC1C(=O)NCCCN1CCN(c2ccccc2)CC1 (centres undefined),-2%
CC(NC(=O)CSc1nc(-c2cccc(Cl)c2)nc2cc(=O)[nH]n12)c1nc2ccccc2n1C (centres undefined),-2%
COc1ccccc1OCC(=O)NCC1(N2CCOCC2)CCCCC1,-5%
CCOc1cccc(CC(=O)N2CCc3c([nH]c4ccccc34)C2c2ccc(C)cc2)c1OCC (centres undefined),18%

Going on with the list:
Structure,miR-21 FLuc
CC(C)(C)c1ccc(OCC(=O)Nc2ccc(S(=O)(=O)Nc3ncccn3)cc2)cc1,-8%
Cc1ccc(Cn2c(=O)n(Cc3ccc(Cl)cc3)c(=O)c3cccnc32)cc1,-3%
CC(C)(C)c1ccc(C(=O)Nc2nc3nc(-c4ccccc4)cc(=O)n3[nH]2)cc1,-2%
COCCCNC(=O)c1ccc(Cn2c(=O)c3ccccc3n(Cc3c(C)cc(C)cc3C)c2=O)cc1,-4%
COc1cccc(NC(=O)CSC2=Nc3ccccc3C3=NC(CCC(=O)NCCc4ccccc4)C(=O)N23)c1 (centres undefined),4%
O=C(Cc1cccs1)NC1CC(=O)N(c2ccc(Cl)cc2)C1 (centres undefined),2%
CCCC(=O)Nc1cccc(-c2cn3c(C)csc3n2)c1,-5%
Cc1nc2nc(SCC(=O)NCCc3ccc(Cl)cc3)nn2c(C)c1Cc1ccccc1Cl,3%
Cc1ccc(C(=O)Nc2nnc(S(=O)(=O)N(C)Cc3ccc(Cl)cc3)s2)cc1,-1%
O=C(Nc1ccc(OC(F)(F)F)cc1)C1CCN(S(=O)(=O)c2ccc3[nH]c(=O)ccc3c2)CC1,-2%
COC(=O)CNC(c1ccccc1)c1cc(Br)ccc1NC(=O)c1ccc(Cl)cc1 (centres undefined),14%
Cc1ccc(S(=O)(=O)NCCSc2nnnn2-c2ccc(Cl)c(C(=O)O)c2)cc1,0%
Cc1ccc(OCC(=O)Nc2ccccc2C(=O)OCc2cc(=O)n3ccsc3n2)cc1,-10%
CCCN(CCC)C(=O)c1c[nH]c2ccc(S(=O)(=O)Nc3cc(C)cc(C)c3)cc2c1=O,10%
CCCOc1ccc(CNC(=O)C2CCN(c3nc4ccccc4nc3C(F)(F)F)CC2)cc1,3%
COc1ccc(NS(=O)(=O)c2ccc3c(c2)C(C(C)C)C(=O)N3)cc1 (centres undefined),13%
Cc1c(Cl)cccc1NC(=O)C(C)n1nnc2sc3c(c2c1=O)CCCC3 (centres undefined),7%
CCOC(=O)c1noc2nc(C)n(Cc3cccc([N+](=O)[O-])c3)c(=O)c12,-7%
COc1cc(C2c3c(-c4c(C)cc(C)cc4O)n[nH]c3C(=O)N2CCCOC(C)C)cc(OC)c1OC (centres undefined),-5%
CCOc1cc(C2Sc3ccccc3NC3=C2C(=O)c2ccccc23)ccc1O (centres undefined),14%
Cc1cc(C(=O)NCCc2ccc(Cl)cc2)c2c(C)nn(-c3ccccc3)c2n1,-5%
Clc1ccc(CNc2nc3ccccc3c3nc(-c4cccnc4)nn23)cc1,1%
COc1cc(C2c3c(-c4cc(C)ccc4O)n[nH]c3C(=O)N2Cc2ccco2)cc(OC)c1OC (centres undefined),-5%
O=C1CSC(c2ccccc2)N1Cc1ccccc1 (centres undefined),1%
Cc1cc(C)c2c(-n3cccc3)c(C(=O)NCCCN3CCCCC3C)sc2n1 (centres undefined),6%
COc1ccc(Nc2c(-c3cccc(O)c3)nc3cnccn23)cc1,-3%
Cc1ccc(NC(=O)CC(C)S(=O)(=O)c2ccc3c(c2)NC(=O)CO3)cc1Cl (centres undefined),11%
Cc1ccc(NC(=O)C2CCCN(S(=O)(=O)c3cccc4nsnc34)C2)c(C)c1 (centres undefined),12%
COc1ccc(C)cc1NC(=O)c1oc2ccc(S(=O)(=O)N3CCC4(CC3)OCCO4)cc2c1C,4%
Cc1c(-c2nsc(NC(=O)c3ccc(Cl)cc3)n2)nnn1-c1ccc(C(C)C)cc1,-13%
O=C(Nc1ccc(Br)cc1)C1CCCN1S(=O)(=O)c1ccc(F)cc1 (centres undefined),17%
Cc1ccccc1CNC(=O)c1cc2cccc3c2n1CC(C)S3 (centres undefined),6%
CCCC(O)c1nc2ccccc2n1Cc1ccccc1OC (centres undefined),5%
Cc1ccc(Cn2c(=O)n(CC3CCC(C(=O)N4CCC(C)CC4)CC3)c(=O)c3sccc32)cc1 (centres undefined),-1%
Cc1ccc(NC(=O)c2ccc(Cl)cc2Cl)c(C(=O)c2ccccc2)c1,-1%
Cc1ccc(NC(=O)NCCOCCn2c(=O)oc3ccccc32)c(C)c1,8%
CCOc1ccc(-c2nc(CSCC(=O)NCCc3ccccc3)c(C)o2)cc1,17%
Cc1cc(C)c(NC(=O)Cn2cc(S(=O)(=O)Cc3ccccc3F)c3ccccc32)c(C)c1,4%
Cc1ccc(NC(=O)CSc2nnc3scc(-c4ccc(Cl)cc4)n23)cc1,3%
O=C(NCC(c1ccc2c(c1)OCO2)N1CCN(c2ccccc2)CC1)c1ccccc1 (centres undefined),-3%
CSc1ccc(CCNC(=O)c2ccc(-c3nc(COc4ccc(C)cc4)c(C)o3)cc2)cc1,0%
Cc1ccc(CN2CCc3nc(SCC(=O)Nc4cccc(C)c4C)[nH]c(=O)c3C2)cc1,0%
Cc1cccc(C)c1OCC(=O)NCC1(N2CCOCC2)CCCCC1,15%
COc1cccc(NC(=O)c2cc3c(=O)n(Cc4cccnc4)ccc3nc2C)c1,-3%
COc1ccc(N(C(=O)c2ccccc2F)S(=O)(=O)c2ccc3c(c2)n(C)c(=O)n3C)cc1,-11%
CCN(CC)C(=O)c1ccc2c(c1)N(Cc1ccccc1F)C(=O)c1ccccc1S2=O (centres undefined),-6%
COc1ccc2c(c1)c(=O)c(C(=O)c1ccc(F)cc1)cn2CC(=O)Nc1ccc2c(c1)OCO2,-8%

Exported with values ahead of the structure: entries from further up
miR-21 FLuc,mol
-11%,COc1ccc(N(C(=O)c2ccccc2F)S(=O)(=O)c2ccc3c(c2)n(C)c(=O)n3C)cc1
-8%,COc1ccc2c(c1)c(=O)c(C(=O)c1ccc(F)cc1)cn2CC(=O)Nc1ccc2c(c1)OCO2
0%,CSc1ccc(CCNC(=O)c2ccc(-c3nc(COc4ccc(C)cc4)c(C)o3)cc2)cc1

As a working copy, six of the compounds above.
Structure,miR-21 FLuc
Cc1ccc(CN2CCc3nc(SCC(=O)Nc4cccc(C)c4C)[nH]c(=O)c3C2)cc1,0%
Cc1cccc(C)c1OCC(=O)NCC1(N2CCOCC2)CCCCC1,15%
COc1cccc(NC(=O)c2cc3c(=O)n(Cc4cccnc4)ccc3nc2C)c1,-3%
COc1ccc(N(C(=O)c2ccccc2F)S(=O)(=O)c2ccc3c(c2)n(C)c(=O)n3C)cc1,-11%
CCN(CC)C(=O)c1ccc2c(c1)N(Cc1ccccc1F)C(=O)c1ccccc1S2=O (centres undefined),-6%
COc1ccc2c(c1)c(=O)c(C(=O)c1ccc(F)cc1)cn2CC(=O)Nc1ccc2c(c1)OCO2,-8%

An excerpt (hit frequency here may not be typical).
